Screens from PubChem.
Yeast UUG start – alters start codon recognition fidelity in yeast; S. cerevisiae UUG-firefly luciferase reporter, luminescence/redox ratio; activity score, % at 18.7 µM; actives 0.13% (n = 350,000); AID 602363;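 active = replicate mean at a twofold rise or more, about +100% in these data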;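 note: firefly luciferase made from a UUG start codon reports start codon fidelity; reporter light over untreated wells divided by growth signal over untreated wells; some hits fall short of that in this replicate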
HIV Env fusion – blocks HIV Env-driven cell-cell fusion; AID 651610; inhibition, % at 12.3 µM; actives 1.1% (n = 360,000); HeLa-JRFL Env/CEM21 cell fusion, luciferase;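 active = mean replicate inhibition score of at least 50 and every replicate individually at or above 50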;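 note: 0% = plate neutral controls and 100% = maraviroc near 300 nM; one replicate is shown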
Rce1 inhib – yeast Ras-converting enzyme inhibition | calls only | AID 2563 | yeast membranes, quenched prenylated peptide cleavage fluorescence | Q03530 | actives 0.27% (n = 290,000);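 active = fall in fluorescence gain of 50% or more versus controls, with final raw signal at or below 3038400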;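 note: plate controls were neutral control wells for no effect and wells lacking membranes for full effect; tested at 10 µM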
CSC inhib – cancer stem cell inhibition. cancer stem cell-like cells viability, luminescence. inhibition, % at 7.5 µM. actives 1.1% (n = 300,000);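 active = mean at 75% or more and at least half the replicates too; tested in HMLE shEcad cells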;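 note: 0% = median of negative and 100% = median of positive control wells; the first replicate is given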
eIF4H FP inh – inhibitors of RNA binding by human eIF4H | eIF4H fluorescence polarization binding assay | inhibition, % at 35 µM | actives 0.94% (n = 290,000);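 active = 50% or more with normal probe brightness, or confirmed in later tests; about a fifth of its hits are not listed in these tables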;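 note: calls also rest on retests at 20 µM and on dose response follow-up; 0% = protein and probe with vehicle and 100% = probe without protein; strong numbers were not always called active; many hits fall short of the cut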
PABP polyA inh – blocks human PABP binding to poly(A) RNA; actives 1% (n = 290,000); inhibition, % at 35 µM; P11940; fluorescence polarization; AID 2014;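 active = 50% or more with normal probe brightness, or confirmed in later tests; about a fifth of its hits are not listed in these tables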;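 note: calls also rest on retests at 20 µM and on dose response follow-up; controls were probe without protein and protein plus probe with vehicle; some compounds called inactive have numbers as strong as hits; many hits fall short of the cut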
Target sequence (P11940 whole entry, looked up): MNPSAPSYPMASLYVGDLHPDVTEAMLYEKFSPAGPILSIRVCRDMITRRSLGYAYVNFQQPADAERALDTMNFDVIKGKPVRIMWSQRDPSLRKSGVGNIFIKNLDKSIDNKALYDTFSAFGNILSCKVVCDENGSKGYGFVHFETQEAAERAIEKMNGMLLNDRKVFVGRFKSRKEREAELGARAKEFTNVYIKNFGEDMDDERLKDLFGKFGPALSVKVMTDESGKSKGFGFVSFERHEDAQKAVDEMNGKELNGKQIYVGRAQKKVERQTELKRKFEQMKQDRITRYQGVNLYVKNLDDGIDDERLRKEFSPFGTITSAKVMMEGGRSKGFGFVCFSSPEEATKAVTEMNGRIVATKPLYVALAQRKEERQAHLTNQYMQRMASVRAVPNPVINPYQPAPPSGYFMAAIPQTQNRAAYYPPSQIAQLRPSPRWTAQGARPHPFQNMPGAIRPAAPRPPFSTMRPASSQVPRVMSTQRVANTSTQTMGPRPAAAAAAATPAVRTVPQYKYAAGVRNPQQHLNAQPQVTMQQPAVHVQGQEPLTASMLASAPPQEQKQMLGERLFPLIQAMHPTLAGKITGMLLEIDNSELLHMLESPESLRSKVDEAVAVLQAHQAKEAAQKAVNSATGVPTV
MT1-MMP act inh – inhibitors of human MT1-MMP activation. GFP/RFP ratio change, % at 20 µM. P50281. actives 0.061% (n = 360,000). HT1080 RFP-PRO-GFP cells, GFP/RFP ratio fluorescence, overnight; percent of plate control window, DMSO zero;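 active = GFP/RFP ratio change of at least 30% with cell ATP level not reduced by more than half and red fluorescence within 50% of control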; note: strong numbers were not always called active
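Material: RFP-PRO-GFP reporter HT1080 cells. Dosing: single-point 20 µM compound, 1% DMSO. Controls: DMSO and RFP-L50D-GFP cell wells. Timing: cells overnight before dosing, compound overnight, 37 °C, 5% CO2. Measure: GFP/RFP fluorescence ratio.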
MT1-MMP act inh RFP – further read-out of MT1-MMP act inh, marked with its call; RFP signal change, %; measured here: RFP expression control read;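 0 = vehicle wells; hits needed this value within 50% of zero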
* marks the source's active call; other numbers are inactive results; i = inactive; · = no result given. An unsorted share of the library. About 3% of those tested had a hit in this group.

1	Cn1c(SCC(=O)c2ccccc2)nnc1-c1cccc(N)c1
2	Cc1nc(SCC(O)CO)c([N+](=O)[O-])[nH]1 (stereo not drawn)
3	COc1cc(C(=O)N2CCN(C(=O)CC(C)C)CC2)cc(OC)c1OC
4	O=C(NC1CCOc2ccccc21)c1ccccn1 (stereo not drawn)
5	C=CCn1c(SCC(=O)Nc2cc(C)on2)nc2sc3c(c2c1=O)CCCC3
6	CC(C)CNS(=O)(=O)c1ccc(Br)cc1N1CCC[C@@H]1CO
7	Cc1ccc(Nc2nc(N)nc(CN3CCN(Cc4ccc5c(c4)OCO5)CC3)n2)cc1Cl
8	COc1ccc(CN2CCC(C(N)=O)CC2)cc1OCc1ccccc1

assay / compound | 1 | 2 | 3 | 4 | 5 | 6 | 7 | 8
Yeast UUG start | · | -11 | -3 | 0 | -5 | -11 | -17 | 5
HIV Env fusion | · | · | · | -4 | · | -31 | 69* | 12
Rce1 inhib | i | i | i | i | · | · | i | i
CSC inhib | -8 | 6 | -15 | -5 | · | · | 9 | -14
eIF4H FP inh | -5 | -6 | 0 | 5 | -2 | · | -9 | 7
PABP polyA inh | 11 | 10 | 5 | -7 | 1 | · | -7 | 12
MT1-MMP act inh | 0 | 8 | 3 | 0 | 0 | 2 | 4 | -2
MT1-MMP act inh RFP | -2 | 6 | 2 | 1 | 1 | 0 | -6 | -3

9	CCN(C(=O)CSc1nnc(COc2ccccc2F)n1N)c1c(N)n(Cc2ccccc2)c(=O)[nH]c1=O
10	COc1ccc(C2C/C(=N\O)C(C)(C)O2)cc1 (stereo not drawn)
11	Cc1ccc(-n2c(N)c(-c3nc4ccccc4n3C)sc2=S)cc1
12	CCC1=NN(C(=O)c2cccnc2)C(O)(C(F)(F)F)C1 (stereo not drawn)
13	Cc1c(NC(=O)C(C)OC(=O)c2ccc(Br)o2)c(=O)n(-c2ccccc2)n1C (stereo not drawn)
14	OCCCCCNc1ncnc2ccccc12
15	COc1cc(NC(=O)c2ccc(C)c([N+](=O)[O-])c2)ccc1NC(=O)c1ccco1
16	CCC(c1nnc(SCC(=O)N2CC3(C)CC2CC(C)(C)C3)o1)N(C)C (stereo not drawn)

assay / compound | 9 | 10 | 11 | 12 | 13 | 14 | 15 | 16
Yeast UUG start | 5 | -10 | · | · | · | -7 | · | -15
HIV Env fusion | 6 | 12 | -103 | · | -9 | · | · | -4
Rce1 inhib | · | i | i | i | i | i | i | i
CSC inhib | · | -6 | · | -15 | -10 | -9 | 1 | 1
eIF4H FP inh | · | -6 | 13 | -2 | -3 | -4 | -4 | -7
PABP polyA inh | · | -8 | -8 | 3 | 0 | -6 | 1 | -5
MT1-MMP act inh | 3 | 5 | -6 | 3 | 2 | 1 | · | 1
MT1-MMP act inh RFP | 5 | 7 | 3 | 6 | 5 | -23 | · | 3

17	COC(=O)c1sccc1NC(=O)c1c(-c2ccccc2)noc1C
18	CC(=O)n1c2ccccc2c2c1c1ccccc1n2C
19	O=C(c1ccc2ccccc2c1)C1CCCN(C(=O)CN2C(=O)CSC2=O)C1 (stereo not drawn)
20	COc1ccccc1CNC(=O)C1CCCN(c2cnccn2)C1 (stereo not drawn)
21	Fc1ccccc1Nc1ncnc2c1nnn2Cc1ccccc1
22	Cc1ccc(C)c(NC(=O)C2CCCN(S(=O)(=O)c3c(C)noc3/C=C/N(C)C)C2)c1 (stereo not drawn)
23	COc1ccc(-c2cc(-c3ccccc3)n[nH]2)c(O)c1
24	COc1ccc(S(=O)(=O)Cc2ccc(C(=O)NCc3ccco3)o2)cc1

assay / compound | 17 | 18 | 19 | 20 | 21 | 22 | 23 | 24
Yeast UUG start | · | 6 | · | -11 | -5 | -33 | -20 | -11
HIV Env fusion | 1 | · | 11 | 8 | -2 | 12 | -96 | -4
Rce1 inhib | i | i | i | i | i | i | i | i
CSC inhib | 6 | -11 | -6 | -3 | 10 | 3 | 20 | -3
eIF4H FP inh | -9 | 6 | 0 | · | -5 | -5 | 3 | -8
PABP polyA inh | 10 | 3 | 3 | · | 19 | 13 | 8 | 0
MT1-MMP act inh | -2 | -22 | 0 | -2 | 5 | -1 | 6 | 0
MT1-MMP act inh RFP | -3 | 5 | -2 | 0 | 2 | 2 | 2 | 0

25	O=C(Nc1cccc(OC(F)(F)F)c1)[C@@H]1O[C@H](CO)[C@H](O)[C@H](O)[C@H]1O
26	Cc1cc(NC(=O)CNC(=O)C2CCCCC2)no1
27	CC(O)(Cc1ccccn1)Cc1ccccn1
28	COC(=O)c1[nH]c2ccccc2c1NC(=O)C(C)N1CCN(C(=O)c2ccco2)CC1 (stereo not drawn)
29	O=C(CN1C(=O)NC2(CCCCCC2)C1=O)c1ccc(OC(F)F)cc1OC(F)F
30	CCCCN1C(=S)SC(C)(C)C1/[N+]([O-])=C/c1ccc(S(=O)(=O)NC)cc1 (stereo not drawn)
31	CCOc1ccc(Cl)cc1-c1cc(C(=O)NC(C)C)[nH]n1
32	Cc1noc2ncc(C(=O)c3cc(F)ccc3O)cc12

assay / compound | 25 | 26 | 27 | 28 | 29 | 30 | 31 | 32
Yeast UUG start | -14 | -19 | -2 | 11 | · | -10 | -8 | ·
HIV Env fusion | 22 | · | -1 | -24 | 3 | 4 | 13 | ·
Rce1 inhib | · | · | · | i | i | i | · | i
CSC inhib | · | -5 | · | -7 | 36 | -10 | · | 8
eIF4H FP inh | · | -1 | · | -8 | · | -5 | · | -9
PABP polyA inh | · | -8 | · | -13 | · | 5 | · | 6
MT1-MMP act inh | 0 | 10 | 6 | 1 | 0 | 1 | -3 | -2
MT1-MMP act inh RFP | 4 | 1 | 8 | -13 | -6 | 2 | -4 | -1

33	CN=C1SC(CC(=O)Nc2c(C)cccc2C)C(=O)N1/N=C/c1cccs1 (stereo not drawn)
34	CSc1nc(Oc2ccc(=O)[nH]n2)nc(N(C)C)n1
35	O=C(CSc1ncn[nH]1)N1N=C(c2ccc(Cl)cc2)CC1c1ccco1 (stereo not drawn)
36	Cc1ccc(N/C=C/C(=O)c2ccco2)c(O)c1
37	Cc1cccc(N2CCN(C(=O)c3cccc(N4C(=O)C5C6C=CC(C6)C5C4=O)c3)CC2)c1C (stereo not drawn)
38	CC(=O)Nc1cccc(/C(C)=N/NS(=O)(=O)c2ccccc2)c1
39	N/C(=N\OC(=O)c1cccc2ccccc12)c1ccncc1
40	CC1=C(C(=O)O)N2C(=O)C(NC(=O)c3ccc(F)cc3)C2SC1 (stereo not drawn)

assay / compound | 33 | 34 | 35 | 36 | 37 | 38 | 39 | 40
Yeast UUG start | · | -27 | · | · | -5 | -7 | · | -9
HIV Env fusion | · | · | 1 | -55 | 9 | -13 | -39 | ·
Rce1 inhib | i | i | i | i | i | i | i | ·
CSC inhib | -10 | · | 5 | 8 | 26 | -13 | -13 | -10
eIF4H FP inh | 11 | 24 | -9 | 7 | -2 | 11 | -3 | ·
PABP polyA inh | -2 | -5 | 28 | -5 | 0 | -9 | 11 | ·
MT1-MMP act inh | 7 | 6 | 3 | -15 | -4 | 7 | 2 | -1
MT1-MMP act inh RFP | 3 | 4 | 1 | 1 | -7 | 6 | 0 | 2

The last three records of the section before come first, to join the parts.
38	CC(=O)Nc1cccc(/C(C)=N/NS(=O)(=O)c2ccccc2)c1
39	N/C(=N\OC(=O)c1cccc2ccccc12)c1ccncc1
40	CC1=C(C(=O)O)N2C(=O)C(NC(=O)c3ccc(F)cc3)C2SC1 (stereo not drawn)
41	CCC(=O)N1CCN(c2ccc(NC(=O)c3ccc(C#N)cc3F)cc2Cl)CC1
42	COc1ccc(C(=O)OCC(=O)N(C)C2CCS(=O)(=O)C2)cc1S(=O)(=O)N1CCCc2ccccc21 (stereo not drawn)
43	O=C1COc2ccc(C(=O)CSc3nnc(Cc4cccs4)n3-c3ccccc3)cc2N1
44	O=C(N/N=C/c1ccc(Cl)cc1)c1sccc1OCc1ccc(F)cc1
45	FC(F)(F)c1cc(Cl)c2nc(-c3ccccc3)cn2c1
46	O=C(C(=O)N1CCN(C(=O)c2ccco2)CC1)c1c[nH]c2ccccc12
47	CCCCNC(=O)CCn1c(=S)[nH]c2cc3c(cc2c1=O)OCO3
48	O=c1[nH]c2ccc(S(=O)(=O)N3CCCC3)cc2[nH]1

assay / compound | 38 | 39 | 40 | 41 | 42 | 43 | 44 | 45 | 46 | 47 | 48
Yeast UUG start | -7 | · | -9 | · | · | -28 | · | -32 | · | -9 | -12
HIV Env fusion | -13 | -39 | · | -23 | 0 | 16 | · | · | -7 | -15 | 0
Rce1 inhib | i | i | · | i | i | i | i | i | i | i | i
CSC inhib | -13 | -13 | -10 | 0 | -3 | 3 | · | 9 | -10 | -8 | -14
eIF4H FP inh | 11 | -3 | · | 5 | 40 | -1 | -9 | -1 | -7 | -8 | -2
PABP polyA inh | -9 | 11 | · | -6 | -10 | 11 | -10 | -6 | -9 | -6 | -1
MT1-MMP act inh | 7 | 2 | -1 | 4 | -2 | -4 | 13 | 1 | -7 | 3 | 2
MT1-MMP act inh RFP | 6 | 0 | 2 | -8 | 1 | -6 | -4 | 2 | 1 | 2 | 1

49	CCC1CCCCN1C1Sc2ccc(C(=O)OC)cc2NC1=O (stereo not drawn)
50	O=C1NCCSC1c1ccccc1 (stereo not drawn)
51	Cc1ccc(O)c(NC(=O)c2cccc(S(=O)(=O)N3CCCCC3)c2)c1
52	Cc1cccc(C(C)C)c1NC(=O)c1ccc(OCC2CCCO2)cc1 (stereo not drawn)
53	COCCn1nnnc1C(c1ccccc1OC)N1CCN(c2ccccc2F)CC1 (stereo not drawn)
54	C/C(=N/NC(=O)CNC(=O)c1cccs1)c1ccco1
55	CC(=O)N1N=C(c2ccc(C)cc2)OC1c1ccc(C(C)C)cc1 (stereo not drawn)
56	CCCCCCCCCCCCCCCCn1cc[n+](CC(C)=O)c1

assay / compound | 49 | 50 | 51 | 52 | 53 | 54 | 55 | 56
Yeast UUG start | 12 | · | 4 | -19 | -7 | · | -16 | ·
HIV Env fusion | 6 | 24 | · | -6 | · | 5 | -132 | ·
Rce1 inhib | i | i | i | · | i | i | i | ·
CSC inhib | -3 | -6 | 3 | -17 | 14 | -5 | 5 | ·
eIF4H FP inh | 32 | · | 10 | · | 0 | 0 | -5 | 12
PABP polyA inh | 7 | · | 18 | · | 22 | -2 | -9 | 5
MT1-MMP act inh | -4 | 5 | -5 | 0 | -1 | 5 | 2 | -18
MT1-MMP act inh RFP | 4 | 1 | -6 | -10 | -2 | 5 | 2 | -26

57	CCOc1ccccc1N1CCN(CC(=O)c2c(N)n(C)c(=O)n(C)c2=O)CC1
58	Cc1cccc(C)c1N1CCN(c2nc(N(C)C)oc(=O)c2C#N)CC1
59	CCOC(=O)c1c(NC(=O)COC(=O)c2ccc(Cl)nc2)sc(C(=O)N(C)C)c1C
60	CCCCOP(=O)(c1ccc(N(C)C)cc1)C(O)c1cccnc1 (stereo not drawn)
61	Cc1ccc(C(=O)Nc2nc(-c3ccco3)c(-c3ccco3)s2)o1
62	Cc1cnc(C(=O)Nc2ccc(S(=O)(=O)NCC(C)C)cc2)cn1
63	CCN(CC)C(=O)C1=C(C)N(Cc2ccc(OC)cc2)C(=O)C(CC(=O)NC2CCCCC2)C1 (stereo not drawn)

assay / compound | 57 | 58 | 59 | 60 | 61 | 62 | 63
Yeast UUG start | · | -19 | -22 | · | -5 | · | -3
HIV Env fusion | -10 | -122 | -3 | -42 | -7 | 7 | 8
Rce1 inhib | i | i | i | i | · | i | ·
CSC inhib | -3 | 9 | -10 | -18 | · | -14 | ·
eIF4H FP inh | 6 | -6 | · | -7 | · | -6 | ·
PABP polyA inh | 0 | 0 | · | -2 | · | -2 | ·
MT1-MMP act inh | 2 | -4 | -3 | 1 | 1 | 3 | -3
MT1-MMP act inh RFP | 0 | 6 | -1 | 3 | 4 | 3 | 5

As entered above.
`Cc1cnc(C(=O)Nc2ccc(S(=O)(=O)NCC(C)C)cc2)cn1` in MT1-MMP act inh RFP: 3
`Cc1cccc(C)c1N1CCN(c2nc(N(C)C)oc(=O)c2C#N)CC1` in CSC inhib: 9
`CCOc1ccccc1N1CCN(CC(=O)c2c(N)n(C)c(=O)n(C)c2=O)CC1` in MT1-MMP act inh: 2
